Screening results as filed in PubChem BioAssay.
KCNQ2 block = KCNQ2 potassium channel inhibitors, primary screen, cell-based, CHO-K1, FluxOR thallium flux, B-score (AID 2156) | Potassium voltage-gated channel subfamily KQT member 2 (Rattus norvegicus), O88943 | 20 min; stronger effect = lower value; only compounds with negative scores are shown here; some inactives read as strong as hits | B-score at 10 µM | actives 1.1% (n = 310,000);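 active means fluorescence ratio B-score at most minus 3 library SDs, with starting brightness B-score within 2 library SDs, cut at about -5.5 in these data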
Target sequence (O88943 whole entry, looked up): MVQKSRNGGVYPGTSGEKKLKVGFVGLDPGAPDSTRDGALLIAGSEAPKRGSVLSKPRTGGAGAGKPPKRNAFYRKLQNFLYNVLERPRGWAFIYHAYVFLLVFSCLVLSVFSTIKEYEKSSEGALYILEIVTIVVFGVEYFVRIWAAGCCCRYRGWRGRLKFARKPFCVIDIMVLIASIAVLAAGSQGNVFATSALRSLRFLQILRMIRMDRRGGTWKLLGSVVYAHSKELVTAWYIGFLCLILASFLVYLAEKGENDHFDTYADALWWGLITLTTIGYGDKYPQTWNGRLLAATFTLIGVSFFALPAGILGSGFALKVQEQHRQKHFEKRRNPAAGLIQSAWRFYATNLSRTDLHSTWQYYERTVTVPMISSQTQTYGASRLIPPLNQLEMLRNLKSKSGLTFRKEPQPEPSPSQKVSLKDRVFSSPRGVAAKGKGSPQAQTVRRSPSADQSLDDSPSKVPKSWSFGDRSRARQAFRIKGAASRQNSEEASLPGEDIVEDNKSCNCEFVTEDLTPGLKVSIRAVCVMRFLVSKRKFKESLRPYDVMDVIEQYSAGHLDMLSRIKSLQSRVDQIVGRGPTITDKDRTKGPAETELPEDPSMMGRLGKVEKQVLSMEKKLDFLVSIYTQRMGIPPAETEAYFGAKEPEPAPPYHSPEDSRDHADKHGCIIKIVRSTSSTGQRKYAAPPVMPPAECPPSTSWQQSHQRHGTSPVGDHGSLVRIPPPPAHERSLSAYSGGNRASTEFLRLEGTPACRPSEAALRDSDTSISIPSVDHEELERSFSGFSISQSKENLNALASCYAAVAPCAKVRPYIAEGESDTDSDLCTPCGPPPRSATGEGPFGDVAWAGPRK
KCNQ2 block baseline = recorded beside KCNQ2 block, whose call it bears; B-score; measured here: initial fluorescence intensity artifact check;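 brightness before thallium and not channel activity; 0 = typical well and far values either way flag optical interference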
Starred values were filed as active, the others as inactive; i = inactive. Not all compounds are listed (hit frequency here may not be typical).

Second line of a record – KCNQ2 block baseline, KCNQ2 block
Cc1ccc(C2(c3ccc(C)cc3)NC(=O)N(CC(N)=O)C2=O)cc1
  0.7, i
CCOC(=O)c1c(C)n(CC)c2ccc(OC(=O)c3ccc([N+](=O)[O-])cc3)cc12
  -1.44, i
O=S(=O)(c1ccc(Br)cc1)N1CCCN(Cc2ccccc2F)CC1
  -2.49, i
COc1ccc(C(=O)Nc2cnc(NC(=O)c3cccs3)cc2C)cc1
  -0.03, i
O=C(N/N=C/c1cccc2ccccc12)c1cc2ccccc2o1
  0.59, i
COc1ccc(C(=O)Nc2nc(-c3ccc(S(=O)(=O)N4CCOCC4)cc3)cs2)cc1
  -0.66, i
O=C(NCc1ccc(C(=O)O)cc1)OCc1ccccc1
  0.25, i
COc1cc(/C=N/NC(=O)c2cc(-c3c(C)nn(-c4ccccc4)c3C)n[nH]2)ccc1O
  -0.26, i
CCOC(=O)Cn1nc(C)c(-c2ccccc2)c1N
  0.75, i
CC(=O)OC1COC(N2CCc3cc([N+](=O)[O-])ccc32)C(OC(C)=O)C1OC(C)=O (stereo unspecified)
  0.86, i
Cc1cc(C)c(NC(=O)c2ccccc2C(=O)c2ccccc2)c(C)c1
  -1.45, i
COc1ccc(/C=C/C(=O)NC(=S)Nc2ccccc2C(=O)NC2CCCCC2)cc1
  1.37, i
CC(C)c1ccc(C(O)c2nc3ccccc3n2C)cc1 (stereo unspecified)
  0.73, i
O=C(Nc1ccccc1)C1CC(=O)N(Cc2ccccc2)C1 (stereo unspecified)
  0.31, i
CC(=O)OCCCNc1cc(Sc2nc3ccccc3s2)c2nonc2c1[N+](=O)[O-]
  -2.44, i
CC1Cc2ccccc2N1S(=O)(=O)c1cccc(C(=O)OCC(=O)NC2CCS(=O)(=O)C2)c1 (stereo unspecified)
  -0.45, i
c1cnc2c(SCc3ccc(-c4nnco4)cc3)cccc2c1
  -1, i
N#CC(C#N)=CN=c1ccn(Cc2ccc(Cl)cc2Cl)cc1
  1.9, i
COC(=O)c1ccc(COc2ccc(NC(C)=O)cc2)o1
  2.96, i
CCOC(=O)c1cnc(C(F)(F)F)nc1Oc1ccccc1
  0.16, i
COc1ccc([N+](=O)[O-])cc1NC(=O)CCN1CCN(C)CC1
  0.16, i
CC1CN(c2ccc(NS(=O)(=O)c3ccccc3)cc2C(=O)O)CC(C)O1 (stereo unspecified)
  -0.33, i
Cc1oc2c(CN3CCCC3)c(O)ccc2c(=O)c1-c1ccccc1
  -0.12, i
Cc1oc2c(c1C(=O)c1ccc(Cl)cc1)C(=O)C(=O)c1ccccc1-2
  -1.47, i
CC12CCC(C(=O)N3CCN(c4ccccc4)CC3)(CC1=O)C2(C)C (stereo unspecified)
  1.46, i
Cc1ccc(CN2CC(C(=O)Nc3cc(S(C)(=O)=O)ccc3Cl)CC2=O)cc1 (stereo unspecified)
  -2.49, i
CCCn1c2c(c(=N)c3c1CCC3)CCCC2
  -1.93, i
COc1ccccc1CNC(=O)COc1ccccc1OC
  -1.27, i
CC1CCN(C(=O)COc2ccc(Nc3ccccc3)cc2)CC1
  -0.12, i
CC(C)(C)c1nnc(N/N=C/c2ccc(O)cc2)n(N)c1=O
  0.3, i
COc1cccc(CN2CC(C(=O)NCCn3cccn3)CCC2=O)c1 (stereo unspecified)
  1.14, i
N#Cc1ccncc1Sc1ccc(Cl)cc1
  -0.38, i
CC(C)(C)c1cc(C(=O)NCC(=O)OCC(=O)c2cccc([N+](=O)[O-])c2)cc(C(C)(C)C)c1
  -0.37, i
COc1ccc(NS(=O)(=O)c2cn(C)cn2)cc1
  0.17, i
CC(CC(=O)NCCc1ccc(Cl)cc1)S(=O)(=O)c1ccc2c(c1)NC(=O)CO2 (stereo unspecified)
  0.51, i
COc1ccc(NC(=O)Nc2ccc3c(c2)N(C)C(=O)CS3)cc1OC
  -0.15, i
CC(=O)Nc1nnc(SCc2cccc(F)c2)s1
  -0.66, i
O=[N+]([O-])c1ccccc1S(=O)(=O)NCCC1=CCCCC1
  0.35, i
CC(C)NC(=O)COC(=O)C1CSC2(c3ccc(Br)cc3)CCC(=O)N12 (stereo unspecified)
  -2.06, i
COc1ccc(/C=C2\CC/C(=C\c3ccc(OC)cc3OC)C2=O)c(OC)c1
  5, i
Cc1onc(-c2ccccc2Cl)c1C(=O)Nc1nnc(C(C)C)s1
  0.21, i
O=C(c1ccc(Cl)c([N+](=O)[O-])c1)N1CCCc2ccccc21
  -2.01, i
CSc1ccccc1NC(=O)c1ccc(Cl)s1
  -1.1, i
CN1/C(=C\C(=O)COC(=O)CNC(=O)c2ccc3ccccc3c2)C(C)(C)c2ccccc21
  0.35, i
CC(C)NC(=S)N/N=C1\CCCCc2ccccc21
  -0.01, i
Fc1ccccc1SCc1nnc(-c2ccccc2Br)o1
  0.78, i
CC(=O)NC(C)CCc1ccccc1 (stereo unspecified)
  -1.23, i
O=C(/C=C/c1ccco1)N(Cc1ccccc1F)C1CCS(=O)(=O)C1 (stereo unspecified)
  -0.28, i
O=C(NCC(c1cccnc1)N1CCN(c2ccc(F)cc2)CC1)c1ccccc1 (stereo unspecified)
  -0.7, i
C/C=C/C(=O)Nc1cccc(C2=NOC3(C2)C[C@@H](C(N)=O)N(C(=O)/C(C)=C/C)C3)c1 (stereo partly specified)
  1.1, i
COc1ccc(C2=NN(C(=O)c3ccccc3)C(c3ccc(OC)c(OC)c3)C2)c(OC(C)=O)c1 (stereo unspecified)
  1.4, i
CSc1nc2ccc(S(N)(=O)=O)cc2s1
  1.35, i
NS(=O)(=O)c1cccc(NC(=O)c2cccnc2Oc2ccccc2)c1
  -0.93, i
O=C(Cc1ccccc1)Nc1nc(-c2ccc(F)c(F)c2)cs1
  -0.57, i
COc1ccc(CN(C(=O)c2cnccn2)C(C(=O)NC(C)(C)C)c2cc(OC)c(OC)c(OC)c2)cc1 (stereo unspecified)
  -0.31, i
CCOc1ccccc1-c1cc(C(=O)Nc2ccc(C(=O)O)cc2)c2ccccc2n1
  -1.25, i
COc1ccc(NC(=O)c2nc[nH]c2C(=O)N[C@@H](C)C(=O)OC(C)(C)C)cc1
  1.41, i
CCOc1ccc(N(C(=O)c2ccc3c(c2)OCO3)C2C=CS(=O)(=O)C2)cc1 (stereo unspecified)
  -0.32, i
O=C(CN1CCN(c2nc(-c3ccc(F)cc3)cs2)CC1)Nc1ccc2c(c1)OCO2
  0.83, i
CN(C(=O)CSc1nnn(C)n1)c1ccccc1
  0.87, i

More records follow:
Second line of a record – KCNQ2 block baseline, KCNQ2 block
CCOC(=O)c1c(C)c(C(=O)NCc2ccc3c(c2)OCO3)c(C)n1CC
  0.18, i
N#Cc1ccc(-c2csc(NC(=O)/C=C/c3cccs3)n2)cc1
  -0.04, i
CCCCOc1ccc(C(=O)N/C(=C\c2cccc([N+](=O)[O-])c2)C(=O)OCCC)cc1
  -0.48, i
O=C(CSc1nc(=O)n2cc(Cl)ccc2n1)Nc1ccc2c(c1)OCCO2
  1.45, i
CC1CCCN(C(=O)CN(C)S(=O)(=O)c2cccc3nsnc23)C1 (stereo unspecified)
  0.71, i
CC1CC(C)CN(CCC(=O)Nc2ccc(Br)cc2)C1 (stereo unspecified)
  1.39, i
O=C(CC1CCCCC1)NC1CCCC1
  1.62, i
CCOC(=O)c1cccc(NC(=O)C2(S(=O)(=O)c3ccc(Cl)cc3)CC2)c1
  0.88, i
O=C(NCC(c1ccco1)N1CCc2ccccc2C1)c1ccc(F)cc1 (stereo unspecified)
  0.74*, -5.68*
Cc1ccccc1N(Cc1ccccc1F)S(C)(=O)=O
  -0.59, i
CCc1ncc(CN2CCCC(C(=O)Nc3cccc(-c4cccc(C)c4)c3)C2)cn1 (stereo unspecified)
  -0.23, i
Cc1cc(NC(=O)c2cnn3c(C(F)(F)F)cc(-c4ccc(Br)cc4)nc23)no1
  1.96, i
COc1ccc(CCNC(=O)c2ccccc2C(=O)NCCc2ccc(OC)c(OC)c2)cc1OC
  -0.28, i
O=S(=O)(c1ccc(Br)cc1)n1c(Cc2ccccc2)nc2ccccc21
  0.81, i
Cn1nc(C(F)(F)F)c2cc(C(=O)Nc3ccc(F)cc3F)sc21
  -0.69, i
O=C(Nc1ccc(F)cc1)N1CCN(c2ccc3nnc(-c4ccc(F)cc4)n3n2)CC1
  0.69, i
Cc1ccc2[nH]c(=O)c(CN(CCCN(C)C)C(=O)Nc3cccc(Cl)c3)cc2c1
  -0.28, i
COc1ccccc1N1CCN(C(=O)C(C)NC(=O)c2cccc([N+](=O)[O-])c2)CC1 (stereo unspecified)
  0.76, i
Cc1cc(C)cc(N(CCC(=O)O)S(=O)(=O)c2ccc(Cl)cc2)c1
  -0.11, i
CCOc1cccc(C(=O)NC(=S)Nc2ccc3c(c2)OCCO3)c1
  -1.47, i
CC(=O)c1ccccc1OCCn1nnc(-c2ccc(C)cc2)n1
  2.33, i
Cc1ccc(OCCCN2C(=O)C(=O)c3cccc(C)c32)cc1
  -1.39, i
CCN=C1SC(C(=O)Nc2ccc(OC)cc2)CC(=O)N1CC (stereo unspecified)
  -0.55, i
CC(C)Sc1nc2c(c(=O)[nH]c(=O)n2C)n1Cc1ccc(Cl)cc1
  -1.33, i
Cc1ccc(C2=NN(C(=O)CSc3nccn3C)C(c3ccco3)C2)cc1 (stereo unspecified)
  -0.38, i
CCCCNC(=O)Cc1coc2ccc3ccccc3c12
  -0.31, i
CCn1c(NC(=O)/C=C/c2ccc(F)cc2)nc2ccccc21
  -1.31, i
Cc1ccc(-c2nc(CS(=O)(=O)CC(=O)Nc3cc(F)ccc3F)c(C)o2)cc1
  0.24, i
CCOC(=O)/C(=C/C1=CC(=C/N(C)C)/C(=O)O1)C(C)=O
  21.7, i
CCCCCOc1ccc(C(=O)CCC(=O)N2CCCC2)cc1
  -0.68, i
CCOC(=O)N1CCN(C(=O)C(CC)c2ccccc2)CC1 (stereo unspecified)
  -1.84, i
COc1ccc(OC)c(NC(=O)CN2CCc3ccccc3C2)c1
  -1.54, i
Brc1ccc(OCc2nnnn2-c2ccccc2)cc1
  -2.04, i
O=C(Cn1nc2sc3ccccc3n2c(=O)c1=O)c1cccs1
  1.02, i
CCOC(=O)C1=C(C)N(CCO)C(=O)NC1c1cccc(O)c1 (stereo unspecified)
  0.19, i
COCCNC(=O)CSc1ccc(-c2nc3ccccc3[nH]2)cn1
  -0.58, i
CCCN1C(=O)CC(c2ccco2)Sc2ccccc21 (stereo unspecified)
  0.62, i
O=C(Nc1ncc(Cl)cn1)c1cccs1
  0.02, i
Cc1ccccc1C(=O)N[C@H](C(=O)OCC(=O)c1ccc[nH]1)C(C)C
  0.21, i
CCS(=O)(=O)c1ccc(O)c(NC(=O)CC2(CC(=O)O)CCCC2)c1
  0.47, i
O=C(CN1CCN(Cc2ccccc2Cl)C1=O)NCC1CCCO1 (stereo unspecified)
  2.75, i
COC(=O)c1cc(NC(=O)c2cccc(F)c2)cc(C(=O)OC)c1
  0.25, i
CCOc1ccc(NC(=O)N(C2CCCCC2)C(C)c2cccnc2)cc1 (stereo unspecified)
  0.75, i
Cc1cc(-c2ccc(S(=O)(=O)N(C)c3ccc(C)c(C)c3)s2)on1
  1.25*, -6.71*
CC(C)NC[C@@H](O)c1ccc(O)c(O)c1
  0.74, i
COc1cccc(OCCCOc2ccc([N+](=O)[O-])cc2Cl)c1
  -0.17, i
COc1ccccc1C1CCN(Cc2cccc([N+](=O)[O-])c2)CC1
  0.01, i
O=C(CSc1nc2ccccc2o1)Nc1ccc(N2CCOCC2)cc1
  0.76, i
Cc1cc(-c2ccccc2)nc2[n+]1CCN2C
  -0.29, i
Cc1ccc(S(=O)(=O)CCC(=O)OCn2nnc3ccccc3c2=O)cc1
  0.1, i
COc1ccc(-c2nnc(NC(=O)CS(=O)(=O)c3ccc(Cl)cc3)o2)c(OC)c1
  1.34, i
O=C(NCCc1cccs1)c1cccs1
  -0.24, i
C[n+]1cnc(-c2ccccc2)cc1-c1ccccc1
  2.02, i
COC(=O)c1ccccc1OCCCOc1ccc(C=O)cc1OC
  1.98, i
CCOC(=O)CC1(NC(=O)c2cc(COc3cncc(Cl)c3)on2)CCCCC1
  1.42, i
COc1ccc(OC)c(C2C(C#N)=C(N)Oc3cc(C)n(Cc4ccccn4)c(=O)c32)c1 (stereo unspecified)
  -1.46, i
CC(=O)c1ccc(NC(=O)C2CCCN(c3ncnc4c3nc3n4CCCCC3)C2)cc1 (stereo unspecified)
  3.67, i
